Source: PubChem BioAssay (several laboratories)
INS promoter inh = TRM-6 insulin promoter activity inhibition; TRM-6 cells (human fetal islet line), insulin promoter-eGFP reporter, imaging; reporter expression induced with tamoxifen; inhibition, % at 2 µM; 130,000 compounds, 0.9% hits;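 active = inhibition above the mean plus 3 SD, with well images judged a real hit on visual review, cut at about 60% in these data, passing the limit was not always enough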
HSV augment = HSV replication enhancement; HSV replication augmentation in cells, fold increase; AID 1956; 220,000 compounds, 0.005% hits; maximum fold increase;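 active = peak rise of 1.5-fold or more in the series; tested in PC3 cells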;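 also: first round at 10 µM; read as green reporter fluorescence; hits show the peak of a series up to 25 µM; 1 = signal of infected wells without compound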
PKD1 kinase inh = inhibitors of human PKD1 kinase; Q15139; PKD1 kinase fluorescence polarization assay; inhibition, %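 (about 10 µM by stock and volumes)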; 200,000 compounds, 0.056% hits; AID 797;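 active = inhibition of 50% or more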;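 also: controls were vehicle for no effect and a reference inhibitor for full effect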
GALR2 ag = agonists of human galanin receptor 2 (GALR2) | O43603 | GALR2-expressing cells, agonist activation read-out | activation, %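 (tested at 5 µM)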 | 140,000 compounds, 0.48% hits | AID 803;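 active = above mean plus 3 SD of all compounds, about 5% in these data, not always enough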;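 also: 0% = vehicle buffer wells and 100% = reference agonist at full effect; tested in CHO reporter cells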
Target sequence (O43603 whole entry, looked up): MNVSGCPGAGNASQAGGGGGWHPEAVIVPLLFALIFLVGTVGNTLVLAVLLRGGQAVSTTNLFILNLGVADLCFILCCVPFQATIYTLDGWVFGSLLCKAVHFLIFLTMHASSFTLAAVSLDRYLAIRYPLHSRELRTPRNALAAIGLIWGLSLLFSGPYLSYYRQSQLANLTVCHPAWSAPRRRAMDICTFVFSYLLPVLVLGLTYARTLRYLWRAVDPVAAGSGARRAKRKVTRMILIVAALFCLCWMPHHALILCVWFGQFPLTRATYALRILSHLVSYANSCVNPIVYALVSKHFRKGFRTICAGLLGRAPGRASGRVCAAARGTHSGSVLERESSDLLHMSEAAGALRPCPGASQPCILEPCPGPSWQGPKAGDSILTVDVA
RGS16-Gao = RGS16-Galphao interaction regulator (human). O15492+P09471. bead-based flow cytometry RGS16-Galphao binding, fluorescence; actives lie on both sides. binding response (% of control), % at 10 µM. 220,000 compounds, 0.38% hits. AID 1441;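 active = below 25% or above 175%, edge rows of some plates excepted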;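 also: Galphao activated by GDP with aluminum fluoride before binding; 100% = wells without compound and 0% = beads without RGS; some results beyond the cut were filed as inactive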
Target sequence (O15492 whole entry, looked up): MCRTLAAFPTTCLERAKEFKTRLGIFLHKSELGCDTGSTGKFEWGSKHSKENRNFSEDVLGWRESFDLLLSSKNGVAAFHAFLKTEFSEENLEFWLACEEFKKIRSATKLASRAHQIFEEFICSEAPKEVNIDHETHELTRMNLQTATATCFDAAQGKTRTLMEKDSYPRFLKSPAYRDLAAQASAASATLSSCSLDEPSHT
Target sequence (P09471 whole entry, looked up): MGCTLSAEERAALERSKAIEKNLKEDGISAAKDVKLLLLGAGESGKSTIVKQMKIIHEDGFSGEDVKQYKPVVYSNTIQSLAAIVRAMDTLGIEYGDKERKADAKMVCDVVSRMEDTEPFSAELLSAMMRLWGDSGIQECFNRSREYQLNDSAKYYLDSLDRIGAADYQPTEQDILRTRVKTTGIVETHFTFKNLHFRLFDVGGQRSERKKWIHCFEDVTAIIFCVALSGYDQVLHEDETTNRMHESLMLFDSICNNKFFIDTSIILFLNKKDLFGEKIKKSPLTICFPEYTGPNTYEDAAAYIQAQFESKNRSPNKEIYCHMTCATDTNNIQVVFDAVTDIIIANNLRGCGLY
INS promoter inh cell count = recorded beside INS promoter inh, whose call it bears; normalized cell count, %; measured here: cell count, toxicity; reference of the scale not given here;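 cells exposed to compound for 48 h; stained nuclei by imaging scaled within each plate; lower means fewer cells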
HSV augment primary fold = recorded beside HSV augment, whose call it bears; fold increase; compound at 10 µM; measured here: primary screen fold increase 10 uM; tested in PC3 cells;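 GFP signal in the first replicate; 1 = infected wells without compound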
* = called active by the depositor; i = inactive; nt = no result given.

SMILES	INS promoter inh	INS promoter inh cell count	HSV augment	HSV augment primary fold	PKD1 kinase inh	GALR2 ag	RGS16-Gao
O=C(c1cccnc1)N1CCN(Cc2cccc(Br)c2)CC1	-29.7	33.8	i	0.98	-4.8	-3.4	100.3
Cc1ccccc1C(=O)N/N=C/c1ccsc1C	0.0	56.9	nt	nt	-6.8	0.9	103.7
CCCCCCCCCc1nc2sc3c(c2c(=O)n1NC(=O)c1ccccc1[N+](=O)[O-])CC(C)(C)OC3	0.0	83.8	i	0.78	4.3	-0.6	110.2
O=[N+]([O-])c1cccc(-c2ccc(SCc3cccnc3)nn2)c1	-16.7	74.0	i	1.01	0.5	nt	104.9
COc1ccc(-n2nc3c(c2NC(=O)c2c(-c4ccccc4Cl)noc2C)CS(=O)(=O)C3)cc1	-90.9	73.9	nt	nt	-9.5	-0.1	97.6
CC1=C(C(N)=O)C(c2cccs2)NC(=O)N1 (stereo not drawn)	nt	nt	i	0.84	nt	nt	98.7
Cc1nc(-c2ccc(-c3ccon3)s2)no1	nt	nt	i	1.03	nt	nt	96.4
O=C(C/C=N\OCc1ccc([N+](=O)[O-])cc1)Nc1ccc(Cl)cc1	nt	nt	i	0.99	-2.7	nt	95.9
C=CCOC(=O)C1=C(C)NC(SCC(N)=O)=C(C#N)C1c1ccc(C)cc1 (stereo not drawn)	nt	nt	i	1.01	nt	nt	81.3
CCSc1nc(C)c(C(C)=O)cc1C#N	-63.9	48.3	i	0.98	-5.8	-0.1	103.3
CC(=O)N1CCN(C(=O)c2cc(S(=O)(=O)Nc3ccc(S(C)(=O)=O)cc3)ccc2Cl)CC1	15.4	108.7	i	0.97	-0.6	nt	100.4
O=C(Oc1cccc(NC(=O)c2ccco2)c1)c1ccc(Br)c(S(=O)(=O)N2CCCCC2)c1	25.9	105.4	i	0.91	0.1	-1.9	110.8
Cc1onc(-c2ccccc2Cl)c1C(=O)N1CCN(c2ncccn2)CC1	nt	nt	i	1.02	0.0	nt	103.3
COc1ccc(/C(N)=N/OC(=O)c2ccc(C)c([N+](=O)[O-])c2)cc1OC	-43.5	69.8	i	0.77	-3.5	-2.4	212.3
Cc1ccc(-c2csc(C3C(N)=NC(S)=C(C#N)C34CCCCC4)n2)cc1 (stereo not drawn)	-9.1	80.7	i	0.87	1.5	-2.8	98.1
COc1cccc(NC(=S)N2CCc3cc(OC)c(OC)cc3C2COc2ccc3c(C)cc(=O)oc3c2)c1 (stereo not drawn)	nt	nt	i	1.03	-3.3	0.8	106.4
CCOC(=O)c1ccc(NC(=O)Nc2ccc(S(N)(=O)=O)cc2)cc1	-60.5	124.8	i	0.8	-11.3	0.4	85.9
O=S(=O)(Cc1cccc(F)c1)c1c[nH]c2ccccc12	nt	nt	i	0.92	-1.6	-1.6	102.0
CCOc1ccc(C2CC(=O)NC(SC)=C2C#N)cc1 (stereo not drawn)	nt	nt	i	0.77	-13.6	-2.9	102.3
O=S(=O)(c1ccc(-c2csc(-c3cccnc3)n2)cc1)N1CCCCC1	60.0	110.6	i	0.98	-3.7	-1.3	103.5

An excerpt of these results, in markdown:
| SMILES | INS promoter inh | INS promoter inh cell count | HSV augment | HSV augment primary fold | PKD1 kinase inh | GALR2 ag | RGS16-Gao |
| --- | --- | --- | --- | --- | --- | --- | --- |
| COc1ccc(-n2nc3c(c2NC(=O)c2c(-c4ccccc4Cl)noc2C)CS(=O)(=O)C3)cc1 | -90.9 | 73.9 | nt | nt | -9.5 | -0.1 | 97.6 |
| CCCCCCCCCc1nc2sc3c(c2c(=O)n1NC(=O)c1ccccc1[N+](=O)[O-])CC(C)(C)OC3 | 0.0 | 83.8 | i | 0.78 | 4.3 | -0.6 | 110.2 |
| Cc1nc(-c2ccc(-c3ccon3)s2)no1 | nt | nt | i | 1.03 | nt | nt | 96.4 |
| Cc1ccccc1C(=O)N/N=C/c1ccsc1C | 0.0 | 56.9 | nt | nt | -6.8 | 0.9 | 103.7 |
| O=C(C/C=N\OCc1ccc([N+](=O)[O-])cc1)Nc1ccc(Cl)cc1 | nt | nt | i | 0.99 | -2.7 | nt | 95.9 |

The list goes on.
SMILES	INS promoter inh	INS promoter inh cell count	HSV augment	HSV augment primary fold	PKD1 kinase inh	GALR2 ag	RGS16-Gao
COc1ccc(-c2c(=O)n(OCc3ccccn3)c3ccccc3[n+]2[O-])cc1OC	9.7	96.8	i	0.963	-0.8	-1.1	101.3
CCOC(=O)c1c(C)c(C(=O)NC(C)COC)c(C)n1C (stereo not drawn)	-34.6	88.2	i	1.01	-9.7	-1.3	102.1
Cc1nc2ncnn2c(C)c1CCC(=O)Nc1csc(N)n1	-20.0	80.6	i	0.7	-0.5	0.2	102.0
CN(C)c1cc(-c2ccc(Cl)cc2Cl)oc(=O)c1Cl	nt	nt	i	1.01	nt	nt	100.3
CN1c2ccccc2C2(C)CCCC3=Cc4cc([N+](=O)[O-])cc([N+](=O)[O-])c4OC312 (stereo not drawn)	nt	nt	i	1.18	4.7	-1.2	102.5
CC(C)(C)NC(=O)Cn1c(Cl)nc2ccccc21	13.3	129.7	i	0.99	-1.3	nt	103.1
CC(=O)Nc1cc2c(ccc3ccccc32)oc1=O	-71.4	87.4	i	0.89	0.6	nt	104.2
Cc1ccc2oc(=O)c3cnn(CC(=O)NCCN4CCOCC4)c3c2c1	nt	nt	i	1.06	1.6	-1.2	101.9
COc1ccc(-n2nnnc2SCC(=O)NNC(=O)c2ccc([N+](=O)[O-])cc2)cc1	nt	nt	i	0.95	10.5	-1.3	103.2
COc1ccc(C2c3ccc(O)cc3Oc3ncn(CC(C)C)c(=N)c32)cc1 (stereo not drawn)	nt	nt	i	1.04	nt	nt	96.5
CN(C)c1ccc(P(=O)(OCc2ccccc2)C(O)c2ccc(Cl)cc2)cc1 (stereo not drawn)	nt	nt	i	0.91	nt	nt	99.3
COc1nc(N2CCCCCC2)nc(N2CCCCCC2)n1	nt	nt	i	1.01	-0.1	-2.1	101.5
CC(C)c1ccc(/C=N/NC(=O)CC(=O)NC2CCCCC2)cc1	nt	nt	i	0.98	-8.6	nt	106.9
Cc1cccc(NC(=O)NC(C)C(c2ccccc2)N2CCN(C)CC2)c1 (stereo not drawn)	12.5	125.5	i	0.97	4.8	nt	105.5
CCn1c(N2CCN(C(=S)NC)CC2)nc2ccccc21	25.8	91.1	i	0.88	-9.3	-1.4	96.9
Fc1ccc(NC(=S)N2CCCC2)cc1	13.3	100.7	i	0.96	-1.1	-2.5	nt
Cc1ccc(-n2c(=O)c3sccc3n(Cc3cc(=O)n4cc(Cl)ccc4n3)c2=O)cc1F	10.0	105.6	i	0.92	-7.7	-0.1	111.4
Cc1ccc(S(=O)(=O)NNC(=O)C2CC=CCC2C(=O)O)cc1 (stereo not drawn)	7.7	111.6	i	1	0.9	nt	97.4
O=C(NCC(=O)N(CCc1ccccc1)C(C(=O)NC1CCCCC1)c1ccncc1)c1ccco1 (stereo not drawn)	nt	nt	i	0.997	-10.7	0.9	102.0
Cc1ccc(NS(=O)(=O)c2ccc(CCC(=O)NCCCOC(C)C)cc2)cc1	-66.7	82.5	i	0.89	2.4	-1.4	69.5
C=CCn1c(C(C)NC(=O)c2ccccc2C)n[nH]c1=S (stereo not drawn)	3.5	44.0	i	1.02	-6.7	-0.2	95.1
O=C1N(Cc2cccnc2)C[C@@H]2C[C@@H](c3ccc4nsnc4c3)N3CCC[C@@]123	nt	nt	i	1.1	6.3	nt	100.5
O=S(=O)(c1ccccc1)c1nc(Nc2ccccc2N2CCOCC2)sc1Cl	nt	nt	i	1.2	-6.2	-0.8	102.6
COc1ccc(C(NC(=O)N2CC(C)OC(C)C2)C(Cl)(Cl)Cl)cc1F (stereo not drawn)	nt	nt	i	1.07	-3.6	-0.3	110.1
CC1CC(=O)Nc2ccccc2N1S(=O)(=O)c1ccccc1 (stereo not drawn)	-87.5	84.1	i	0.88	-15.7	0.5	101.4
Cc1ccccc1-n1nc2c(c1NC(=O)c1ccc(S(=O)(=O)N(C)C)cc1)CSC2	nt	nt	i	1.11	-3.2	-0.1	105.9
CC(=O)Nc1cccc(/C(C)=N/NC(=O)c2ccc(CN3CCOCC3)cc2)c1	nt	nt	i	0.97	-0.8	nt	152.9
O=S(=O)(NC1CCCC1)c1ccc(S(=O)(=O)N2CCN(c3ccccc3)CC2)cc1	4.2	113.9	i	0.87	-6.5	-0.7	114.4
Fc1ccccc1-c1csc(=Nc2cccnc2)n1CCCn1ccnc1	-19.4	111.6	i	0.99	1.1	1.4	101.0
O=C(CC1NC(=O)NC1=O)NC1(C(=O)NC2CCCCC2)CCCCC1 (stereo not drawn)	-7.1	81.4	i	1.02	-14.4	-3.1	104.2
CC(N=Cc1ccccc1O)c1ccccc1 (stereo not drawn)	-42.9	98.0	i	1	0.8	-0.7	105.4
Cc1cccc(C(=O)Nc2ccc(C(=O)/C=C/c3cccs3)cc2)c1	-9.3	81.7	i	0.86	-1.1	-1.5	97.8
Cc1cc2c(c(=O)n1CC1CCCO1)C(c1ccc3c(c1)OCO3)C(C#N)=C(N)O2 (stereo not drawn)	nt	nt	i	1.23	-6.2	-2.0	105.8
Cc1noc(/C=C/c2ccco2)c1S(=O)(=O)N1CCC(C(=O)N(C)Cc2ccccc2)CC1	nt	nt	i	0.92	-3.3	-1.4	91.2
Clc1ccc(OCCCn2cncn2)cc1Cl	7.1	129.0	nt	nt	-2.4	-1.6	103.4
Cn1cccc1/C=C1\SC(=S)N(NC(=O)c2ccccc2Cl)C1=O	16.0	129.4	i	0.93	2.7	-1.5	88.9
CC1CCN(S(=O)(=O)c2ccc(C(=O)NCc3ccc4c(c3)OCO4)cc2)CC1	1.4	90.1	i	0.87	-0.9	-0.6	99.0
Cc1ccc2[nH]c(=O)c(CN(CCCN3CCOCC3)Cc3nnnn3C3CCCC3)cc2c1	nt	nt	i	0.82	-2.6	-0.1	161.5
COc1ccc(CN2CCN(Cc3cccc(OC)c3)C(CCO)C2)cc1 (stereo not drawn)	nt	nt	i	1.02	-1.6	nt	104.2
COCCCNC(=S)N1CCCC(c2nc3cc(C)c(C)cc3[nH]2)C1 (stereo not drawn)	-46.7	81.7	i	1.06	0.9	nt	116.2

Profiles from above. Order of screens: INS promoter inh | INS promoter inh cell count | HSV augment | HSV augment primary fold | PKD1 kinase inh | GALR2 ag | RGS16-Gao
O=C(CC1NC(=O)NC1=O)NC1(C(=O)NC2CCCCC2)CCCCC1 (stereo not drawn) as listed: -7.1 | 81.4 | i | 1.02 | -14.4 | -3.1 | 104.2
Cc1cccc(C(=O)Nc2ccc(C(=O)/C=C/c3cccs3)cc2)c1 as listed: -9.3 | 81.7 | i | 0.86 | -1.1 | -1.5 | 97.8
Clc1ccc(OCCCn2cncn2)cc1Cl as listed: 7.1 | 129.0 | nt | nt | -2.4 | -1.6 | 103.4
CC(=O)Nc1cccc(/C(C)=N/NC(=O)c2ccc(CN3CCOCC3)cc2)c1 as listed: nt | nt | i | 0.97 | -0.8 | nt | 152.9
Cn1cccc1/C=C1\SC(=S)N(NC(=O)c2ccccc2Cl)C1=O as listed: 16.0 | 129.4 | i | 0.93 | 2.7 | -1.5 | 88.9

(continued)
SMILES	INS promoter inh	INS promoter inh cell count	HSV augment	HSV augment primary fold	PKD1 kinase inh	GALR2 ag	RGS16-Gao
CC(=O)N1CCN(S(=O)(=O)c2cccc(C(=O)OCC(=O)N3CC(=O)Nc4ccccc43)c2)CC1	-44.4	104.8	i	0.96	0.4	nt	99.3
CC(C)c1ccc(CCNC(=O)c2ccc([N+](=O)[O-])cc2)cc1	nt	nt	i	0.87	-4.4	-0.1	97.8
O=C(Cn1nc(C(=O)O)c2ccccc2c1=O)NCC1CCCO1 (stereo not drawn)	-26.9	115.3	i	0.91	-16.1	-1.6	106.9
Cc1cccc(/C=N/Nc2cc(N3CCOCC3)nc(N3CCOCC3)n2)c1	-34.2	74.3	i	0.59	-6.9	0.4	98.3
Cc1ccc(OCC(=O)N/N=C\c2ccc(C)o2)c([N+](=O)[O-])c1	35.7	116.2	i	0.92	4.5	nt	100.6
Clc1ccc(/C=N/c2c(-c3ccco3)nc3ccccn23)cc1	0.0	97.8	i	0.94	8.7	-1.2	92.9
COc1ccc(CN2C(=O)CS(=O)CC2=O)cc1OC	-7.4	132.0	i	0.76	-6.9	-1.7	99.7
CNC(=S)N(Cc1cccs1)Cc1cc2cc(OC)c(OC)cc2[nH]c1=O	-2.6	118.1	i	1.05	-8.6	-1.7	101.8

Rows are unselected, and some 1.3% of all compounds hit somewhere here.
